AmpC nodet inh: blocks E. coli AmpC beta-lactamase in absence of detergent | P00811 | AmpC nitrocefin hydrolysis, absorbance 480 nm, no detergent; potencies from a single point are estimates | Potency, µM (series often up to 28.7 µM), for the others: top-dose activity change, negative = inhibition | 1.8% of 71,000 active | AID 585; active = falling curve, for most hits resting on a single point; inconclusive = weak or doubtful change; inactive = flat or rising curve; further: % of control where 0% means no effect; about half of the hits show no inhibition at the top dose; a quarter of the inactives give rising signals
Target sequence (P00811 whole entry, looked up): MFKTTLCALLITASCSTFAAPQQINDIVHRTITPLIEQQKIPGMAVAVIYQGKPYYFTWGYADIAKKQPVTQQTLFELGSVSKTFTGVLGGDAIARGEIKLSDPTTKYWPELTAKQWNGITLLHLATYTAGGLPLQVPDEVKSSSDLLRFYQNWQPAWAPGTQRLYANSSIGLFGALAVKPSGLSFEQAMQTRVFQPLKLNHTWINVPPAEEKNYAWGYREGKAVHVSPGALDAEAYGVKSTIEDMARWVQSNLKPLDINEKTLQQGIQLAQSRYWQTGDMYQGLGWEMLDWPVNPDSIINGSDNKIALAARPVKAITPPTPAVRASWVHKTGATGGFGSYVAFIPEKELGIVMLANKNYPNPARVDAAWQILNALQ
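AmpC, 20 mM phosphate pH 7.0; 15 min cpd preinc, RT; start with nitrocefin (800 uM stock); A480 kinetic read, 20 s intervals, 4 min. No-enzyme wells = negative control.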
Starred values were filed as active, the others as inactive; [ ] = dose if it differs, or a comment. Potency means the concentration at half of the fitted maximal effect. A portion of the library (hit frequency here may not be typical).

SMILES	AmpC nodet inh
C[C@@H](C(=O)N[C@@H](CO)Cc1ccccc1)[C@H]1C[C@]1(C)[C@H](NC(=O)OCc1ccccc1)c1ccccc1	65.2%
CCSc1nnc(NC(=O)c2ccco2)s1	-3.1%
CCOC(=O)c1nc(N)sc1C(=O)OCC	3.3%
Cc1ccc(C(=N)c2ccccc2Cc2cccc3ccccc23)c2ccccc12	2.4%[5.75 µM]
C=CCN1CC2CC3(COc4cc(C)cc(C)c4)C=CC2(O3)C1=O (stereo not drawn)	-14.4%
COCCn1c(SCC(=O)N2CCCc3ccccc32)nc2ccccc2c1=O	113.6%
CSc1nc2c(c(=O)[nH]c(=O)n2C)n1C/C=C(\C)Cl	6.7%
CCC(=O)Nc1ccc(Nc2ccccc2)cc1	-16.3%
Cn1c(=O)c2[nH]c(N3CCOCC3)nc2n(-c2ccccc2)c1=O	7.5%
Nc1ccc(-c2nc3ccc(-c4nc5ccccc5o4)cc3[nH]2)cc1	17.7%
COc1ccccc1OCc1nnc(SCC(=O)c2cc(Cl)ccc2OC)o1	34.8%
CCCS(=O)(=O)c1cn2cccc(N)c2c1S(=O)(=O)CCC	-6.4%
Cc1nccn1CCc1nc(N)nc(N)n1	-3.7%
COc1ccc2c(c1OC)C(=O)OC2C1c2cc3c(cc2CCN1C)OCO3 (stereo not drawn)	-4.5%
COC(=O)c1cccc(NC(=O)Cn2cnc3c2c(=O)n(C)c(=O)n3C)c1	1.8%
Nc1c(C(=O)CCC(=O)O)oc2ccc(Cl)cc12	-14.0%
CC1=C(C(=O)OCc2ccccc2)C(c2ccccc2-c2ccccc2)NC(=O)N1CCCCCC(=O)O (stereo not drawn)	82.2%
COc1ccc(C(N)=O)cc1N	-11.8%
COc1ccc2c(c1)C=CC1(O2)N(CCO)c2ccccc2C1(C)C (stereo not drawn)	30.9%
O=C(/C=C/Nc1ccc(F)c(Cl)c1)c1ccco1	-5.3%
Cn1c(=O)c2c(nc(SCc3cc4c(cc3Cl)OCO4)n2C)n(C)c1=O	-4.8%
COc1ccccc1-c1cc(C(=O)Nc2c(F)cc(F)cc2Br)no1	-3.6%
Nc1nc(CN2CCCCC2)cs1	-15.6%
N[C@](CC1c2ccccc2Oc2ccccc21)(C(=O)O)[C@@H]1C[C@@H]1C(=O)O	13.7%
CC(=O)N1CCC2(CCCN(C(=O)Nc3cccc(C#N)c3)C2)CC1	25.8%
Cc1cc(CNC(=O)[C@H](C)[C@@H]2C[C@@]2(C)[C@@H](NC(=O)OCc2ccccc2)c2ccccc2)nn1C	135.6%
O=C(CN1CCOCC1)Nc1ccc(Oc2ccc(NC(=O)CN3CCOCC3)cc2)cc1	-5.1%
CCOc1cc(C)c(Cl)cc1S(=O)(=O)n1cnc2ccccc21	101.8%
COc1ccc(S(=O)(=O)N(C)CC(=O)N2CCOCC2)cc1	-6.6%
COc1ccc(NC(=O)C2CC(=O)NC(Nc3cccc(C)c3)=N2)cc1 (stereo not drawn)	-8.4%
Cc1ccc2c(c1)c1c(n2CC(O)CNC(CO)(CO)CO)CCCC1 (stereo not drawn)	64.7%
O=C1CC[C@](CCc2nc3ccccc3[nH]2)(c2ccccc2)C(=O)N1	-10.5%[5.75 µM]
COc1ccccc1-n1cc(C(=O)NCC(=O)N2CCN(c3ccccn3)CC2)c2ccccc2c1=O	63.3%
COc1ccc(NCc2cc3cc(OC)ccc3[nH]c2=O)cc1	6.0%
CC(=O)NC12CC3CC(C)(C1)CC(NC(C)=O)(C3)C2	6.1%
Cc1nnc(SCc2cc(=O)[nH]c(Nc3nc(C)c4ccccc4n3)n2)s1	8.9%
Cc1ccc(CC(CC(=O)O)C(=O)NC2CCCCC2)cc1 (stereo not drawn)	0.3%
O=C(NCc1ccco1)C1CC(=O)N(c2ccc(F)cc2)C1 (stereo not drawn)	-3.2%
O=S(=O)(N1CCCCC1)N1CCN(S(=O)(=O)N2CCCCC2)CC1	6.5%
O=S(=O)(c1ccc(F)c(Cl)c1)N1CCCC1	-2.0%
CCN(Cc1ccncc1)C(=O)[C@@H](CO)c1ccccc1	13.6%
Cc1ncoc1C(=O)Nc1ccc(Oc2ccccc2)cc1	33.7%
COc1ccc2nc3oc(C(=O)N4CCCCC4)cc3cc2c1	55.2%
O=C(O)C1CCCCC1C(=O)Nc1ccccc1F (stereo not drawn)	-4.1%
Cc1ccnc(NC(=O)C2CCN(S(=O)(=O)c3cccc4nsnc34)CC2)c1	7.7%
O=C(O)CCC(=O)N(Cc1ccco1)c1nc(-c2ccccc2)cs1	2.5%
O=NN(Cc1ccc(Cl)cc1)[C@@H](C(=O)O)c1ccccc1	-3.7%[5.75 µM]
CCN1C(=O)/C(=C2/C=CC=CN2C)OC1=S	1.0%
Cc1sc2ncn3ncnc3c2c1C	2.7%
Cc1ccc(C(=O)Nc2ccc(S(=O)(=O)N3CCc4ccccc4C3)cc2)o1	-8.3%
CCN(CC)c1nc2n(c(=O)n1)CCN2CC	-12.1%
COc1ccc(C2C(=O)N(C3CCCCC3)CC(=O)N2C2CCCC2)cc1 (stereo not drawn)	53.2%
O=C(c1n[nH]c(=O)c2ccccc12)N1CCN(C2c3ccccc3-c3ccccc32)CC1	83.5%
CCOc1ccc2nc(NC(=O)c3ccoc3C)sc2c1	10.7%
N#CCSc1nc2[nH]ncc2c(=O)n1-c1ccccc1Br	-5.5%
N=c1c(C(=O)NCc2ccc3c(c2)OCO3)cc2c(=O)n3ccccc3nc2n1Cc1cccnc1	98.5%
O=C(OCC(=O)N1CCN(C(=O)c2ccco2)CC1)c1cn(-c2ccccc2)nc1-c1ccccc1	128.7%
Cc1cccc(OCC(=O)N2CCN(C(=O)CCC3CCCC3)CC2)c1	102.7%
COC(=O)C1C(=O)C2=C(CC1C)NC(C)=C(C(=O)OC1CCCC1)C2c1ccc(N(C)C)cc1 (stereo not drawn)	117.9%
Cc1noc(C)c1S(=O)(=O)Nc1ccc(C(=O)NCc2ccccc2)cc1	-13.3%
Next section
SMILES	AmpC nodet inh
Cc1ccc(-c2nn(C)c(=O)c3ccccc23)cc1S(=O)(=O)NCCO	11.9%
CN1CCN(c2ncc3nc(CCc4ccccc4)c(=O)n(CCc4ccccc4)c3n2)CC1	115.1%
Cn1cccc1Cc1nnc(SCC(=O)Nc2ccccc2)n1-c1ccc(F)cc1	79.2%
Cc1cc(N2CC(C(=O)O)CC2=O)ccc1Br (stereo not drawn)	0.3%
COc1nc(-c2ccccc2)cc(-c2ccc(OC)c(OC)c2)n1	120.5%
CC1(C)C(c2ccc(Cl)cc2)=[N+]([O-])C2(CCCC/C2=N\O)N1O (stereo not drawn)	2.6%
COc1cc(C(=O)O)ccc1OC(C)=O	-5.4%
Cc1ccc(NC(=O)CCCCCC2NC(=O)NC2C)cc1 (stereo not drawn)	7.4%
Cc1cc(C(F)F)n2nc(C(=O)NCc3ccccc3F)nc2n1	6.1%
CC(=O)Cn1c(CN2CC(C)CC(C)C2)nc2c1c(=O)n(C)c(=O)n2C (stereo not drawn)	22.7%
CC1(C)CC(=O)C(C=NC2CC(C)(C)NC(C)(C)C2)=C(O)C1	-2.8%
O=C(Cn1nnc2ccccc2c1=O)Nc1cc(C(F)(F)F)ccc1N1CCOCC1	57.0%
CC(=O)c1cccc(NC(=O)NC(C)c2ccncc2)c1 (stereo not drawn)	8.3%
CCOC(=O)CNC(=O)CSc1nc(N(C)C)nc(N2CCOCC2)n1	25.9%
O=C(Cc1ccccc1)Nc1ccc2oc(-c3ccncc3)nc2c1	19.4%
Cc1ccc(C(C(=O)NC2CCCCC2)N2CCCC2)cc1 (stereo not drawn)	-12.1%
c1ccc(-n2ncc3c2ncn2nc(-c4ccco4)nc32)cc1	-7.2%
COc1ccc2nc3c(cc2c1)c(NC(=O)c1cccs1)nn3CC(C)C	15.2%
CN(c1ccc(C(=O)NC2CC2)cc1)S(=O)(=O)c1ccccc1	13.8%
CC(C)NC(=O)N1CCC2(CC1)CCN(C(=O)c1cccc(F)c1)CC2	12.3%

17 entries from above, as a markdown table.
| Structure | AmpC nodet inh |
| --- | --- |
| Cc1cc(N2CC(C(=O)O)CC2=O)ccc1Br (stereo not drawn) | 0.3% |
| COc1nc(-c2ccccc2)cc(-c2ccc(OC)c(OC)c2)n1 | 120.5% |
| CC1(C)C(c2ccc(Cl)cc2)=[N+]([O-])C2(CCCC/C2=N\O)N1O (stereo not drawn) | 2.6% |
| COc1cc(C(=O)O)ccc1OC(C)=O | -5.4% |
| Cc1ccc(NC(=O)CCCCCC2NC(=O)NC2C)cc1 (stereo not drawn) | 7.4% |
| Cc1cc(C(F)F)n2nc(C(=O)NCc3ccccc3F)nc2n1 | 6.1% |
| CC(=O)Cn1c(CN2CC(C)CC(C)C2)nc2c1c(=O)n(C)c(=O)n2C (stereo not drawn) | 22.7% |
| CC1(C)CC(=O)C(C=NC2CC(C)(C)NC(C)(C)C2)=C(O)C1 | -2.8% |
| O=C(Cn1nnc2ccccc2c1=O)Nc1cc(C(F)(F)F)ccc1N1CCOCC1 | 57.0% |
| CC(=O)c1cccc(NC(=O)NC(C)c2ccncc2)c1 (stereo not drawn) | 8.3% |
| CCOC(=O)CNC(=O)CSc1nc(N(C)C)nc(N2CCOCC2)n1 | 25.9% |
| O=C(Cc1ccccc1)Nc1ccc2oc(-c3ccncc3)nc2c1 | 19.4% |
| Cc1ccc(C(C(=O)NC2CCCCC2)N2CCCC2)cc1 (stereo not drawn) | -12.1% |
| c1ccc(-n2ncc3c2ncn2nc(-c4ccco4)nc32)cc1 | -7.2% |
| COc1ccc2nc3c(cc2c1)c(NC(=O)c1cccs1)nn3CC(C)C | 15.2% |
| CN(c1ccc(C(=O)NC2CC2)cc1)S(=O)(=O)c1ccccc1 | 13.8% |
| CC(C)NC(=O)N1CCC2(CC1)CCN(C(=O)c1cccc(F)c1)CC2 | 12.3% |

(next part)
SMILES	AmpC nodet inh
CCN(CCNC(=O)CCCn1nc(C)n2c(cc3sccc32)c1=O)c1ccccc1	71.6%
COc1cccc(Cn2c(=O)cnc3cnc(OC)nc32)c1	17.3%
OC1(c2ccc(F)cc2)CCN(Cc2ccccc2)C1 (stereo not drawn)	-3.4%
CC(C)OCCCNc1ncc2c(n1)CC(c1ccc(N(C)C)cc1)CC2=O (stereo not drawn)	68.9%
CCOc1cc(C(=O)NCC2CCCO2)cc(OCC)c1OCC (stereo not drawn)	14.1%
ON=Cc1cccn1-c1ccccc1	-2.1%
CC(=O)NC(Cc1ccc(F)cc1)C(=O)N1CCN(C(=O)NCc2ccccc2)CC1 (stereo not drawn)	36.8%
CCN1CCN(Cc2c(C)[nH]c3ccc(OC)cc3c2=O)CC1	-14.0%
CCOC(=O)/C(C(N)=NCc1ccco1)=C(/O)c1ccccc1	2.9%
NC(=O)COC(=O)c1cc(S(=O)(=O)N2CCOCC2)ccc1N1CCCCC1	23.8%
CCN(c1ccccc1)S(=O)(=O)c1cccc(C(=O)O)c1	-6.9%
COc1ccc(S(=O)(=O)NC2CCCC2)cc1Br	-6.6%
C[C@H]1CCCC=CC2C[C@H](O)C[C@@H]2[C@H](O)/C=C\C(=O)O1 (stereo partly drawn)	27.9%
COC(=O)N1CCN(c2ccc(OC)cc2)CC1	1.9%
Cc1nn2c(=O)c(NC(=O)c3ccc(F)cc3)cnc2s1	-6.6%
O=C(NCC1CCCO1)C1CC(=O)N(c2ccc(F)c(Cl)c2)C1 (stereo not drawn)	7.5%
O=C1NC2(CCCCC2)N=C1c1ccc(F)cc1	6.1%
COc1ccc(CCNC(=O)Cn2c(=O)cnc3ccccc32)cc1	5.9%
Fc1ccc(C2CC(c3ccccc3)Nc3ncnn32)cc1 (stereo not drawn)	3.98µM*[single pt active]
Cc1ccccc1OCCN1C(=O)NC2(CCc3ccccc32)C1=O (stereo not drawn)	18.0%
CCOc1ccc(Cc2nn[nH]n2)cc1	4.7%
O=C(Oc1ccc2c(c1)CCC2)N1CCOCC1	3.6%
CC(=O)NC(CCS(C)(=O)=O)C(=O)Nc1c(C)cccc1C (stereo not drawn)	2.1%
COc1cc2c(cc1OC)C(C(=O)Nc1ccc3c(c1)OCCO3)C1c3ccccc3CCN1C2=O (stereo not drawn)	119.8%
O=C(CSc1nccn1-c1ccc(F)cc1)Nc1ccc2c(c1)OCO2	6.2%
O=C(Oc1ccc2c(c1)OCO2)c1ccncc1	1.3%
Cc1ccc(C)c(NC(=O)CCN2CC(C)OC(C)C2)c1 (stereo not drawn)	8.0%
C/C=C(/C)C#N	-9.3%
O=C(CC1Oc2ccccc2NC1=O)NCCCN1CCCC1=O (stereo not drawn)	3.98µM*[single pt active]
OCCn1c(SC2CCCCC2)nc2ccccc21	-5.9%
O=C1NCCN1Cc1ccccc1F	-9.3%
CC12CCC(C(=O)Nc3cccnc3)(CC1=O)C2(C)C (stereo not drawn)	9.6%
O=C(Cn1c(=O)oc2cc(S(=O)(=O)N3CCc4ccccc43)ccc21)NC1CCCC1	-1.2%
COc1ccc(N2CCN(c3ccc(N)cc3C#N)CC2)cc1	-8.4%
CCOC(=O)C1CCN(S(=O)(=O)c2c(C)n[nH]c2C)CC1	11.7%
O=C(NCc1nnc(SC/C=C/c2ccccc2)o1)c1ccco1	18.7%
CNC(=O)ON(C(=O)NC)C1N(C)C(=S)SC1(C)C (stereo not drawn)	2.3%
Cc1onc(-c2ccccc2)c1C(=O)Nc1ccc2c(C)cc(=O)oc2c1	17.0%
O=C(O)CSc1nnc2c3ccccc3c3ccccc3c2n1	-11.0%[5.75 µM]
COc1ccc(NC(=O)CN2CCC(NC(=O)C3CCCCC3)CC2)cc1	18.7%
Cc1ccc(C2N(c3cc(C)on3)C(=O)C3CCCN32)cc1 (stereo not drawn)	5.0%
CC(Oc1ccccc1Cl)C(=O)N(Cc1ccco1)C1CCS(=O)(=O)C1 (stereo not drawn)	14.3%
Cc1cccc(-n2c(Cc3cc(=O)[nH]c(=O)[nH]3)nnc2SCC(=O)NCC2CCCO2)c1 (stereo not drawn)	3.98µM*[single pt active]
CSc1cccc(NC(=O)CN(c2cc(C)ccc2C)S(C)(=O)=O)c1	12.3%
CCOc1ccccc1NC(=O)CSc1nnc2c(CC)c(C)nc(N)n12	-5.5%

High-throughput results deposited in PubChem by National Center for Advancing Translational Sciences (NCATS).
